MT1-MMP act inh: blocks activation of human MT1-MMP. P50281. HT1080 RFP-PRO-GFP cells, GFP/RFP ratio fluorescence, overnight; percent of plate control window, DMSO zero. 360,000 compounds, 0.061% hits. AID 651647. GFP/RFP ratio change, % at 20 µM;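 active = GFP/RFP ratio change of at least 30% with cell ATP level not reduced by more than half and red fluorescence within 50% of control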; also: strong numbers were not always called active
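Compound: 20 µM single dose, 1% DMSO / System: HT1080 RFP-PRO-GFP cells / Controls: DMSO and RFP-L50D-GFP cell wells / Read-out basis: GFP/RFP fluorescence ratio / Schedule: overnight compound exposure at 37 °C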
HIV Env fusion: blocks HIV Env-driven cell-cell fusion | inhibition, % at 12.3 µM | 360,000 compounds, 1.1% hits | HeLa-JRFL Env/CEM21 cell fusion, luciferase;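 active = mean replicate inhibition score of at least 50 and every replicate individually at or above 50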;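 also: 0% = plate neutral controls and 100% = maraviroc near 300 nM; one replicate is shown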
UUG fidelity: alters start codon recognition fidelity in yeast; 350,000 compounds, 0.13% hits; activity score, % at 18.7 µM; S. cerevisiae UUG-firefly luciferase reporter, luminescence/redox ratio;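 active = replicate mean at a twofold rise or more, about +100% in these data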;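 also: firefly luciferase made from a UUG start codon reports start codon fidelity; reporter light over untreated wells divided by growth signal over untreated wells; some hits fall short of that in this replicate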
MT1-MMP act inh RFP: also measured in MT1-MMP act inh; calls as there; RFP signal change, %; measured here: RFP expression control read;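 0 = vehicle wells; hits needed this value within 50% of zero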
An asterisk follows results filed as active; / = no result given. Not all compounds are listed; the hit share may differ from the screen's.

SMILES | MT1-MMP act inh | MT1-MMP act inh RFP | HIV Env fusion | UUG fidelity
COC(=O)Nc1nc2ccc(C(=O)C3CC3)cc2[nH]1 | / | / | -224 | /
O=c1c(O[C@@H]2O[C@H](CO)C(O)C2O)c(-c2ccc(O)c(O)c2)oc2cc(O)cc(O)c12 (stereo partly specified) | 3 | 0 | / | -10
